MT1-MMP act inh = blocks activation of human MT1-MMP; GFP/RFP ratio change, % at 20 µM; P50281; hit rate 0.061% among 360,000; HT1080 RFP-PRO-GFP cells, GFP/RFP ratio fluorescence, overnight; percent of plate control window, DMSO zero;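 active = GFP/RFP ratio change of at least 30% with cell ATP level not reduced by more than half and red fluorescence within 50% of control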; note: strong numbers were not always called active
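Read-out: GFP/RFP fluorescence ratio; Test system: RFP-PRO-GFP reporter HT1080 cells; Compound dosing: single-point 20 µM compound, 1% DMSO; Times: overnight compound exposure at 37 °C.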
HIV Env fusion = inhibitors of HIV Env-mediated cell fusion | HeLa-JRFL Env/CEM21 cell fusion, luciferase | hit rate 1.1% among 360,000 | inhibition, % at 12.3 µM;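 active = mean replicate inhibition score of at least 50 and every replicate individually at or above 50; inconclusive = only one of the two criteria met; inactive = mean below 50 and not all replicates reaching 50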;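 note: 0% = plate neutral controls and 100% = maraviroc near 300 nM; one replicate is shown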
Yeast UUG start = modulators of start codon recognition fidelity in yeast | S. cerevisiae UUG-firefly luciferase reporter, luminescence/redox ratio | activity score, % at 18.7 µM | hit rate 0.13% among 350,000;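 active = replicate mean at a twofold rise or more, about +100% in these data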;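 note: firefly luciferase made from a UUG start codon reports start codon fidelity; reporter light over untreated wells divided by growth signal over untreated wells; some hits fall short of that in this replicate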
PABP polyA inh = blocks human PABP binding to poly(A) RNA; inhibition, % at 35 µM; hit rate 1% among 290,000; fluorescence polarization; AID 2014; P11940;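 active = 50% or more with normal probe brightness, or confirmed in later tests; inconclusive = above 50% with abnormal brightness, or retests that disagree; inactive = below 50% or failed in later tests; about a fifth of its hits are not listed in these tables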;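 note: calls also rest on retests at 20 µM and on dose response follow-up; controls were probe without protein and protein plus probe with vehicle; some compounds called inactive have numbers as strong as hits; many hits fall short of the cut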
Target sequence (P11940 whole entry, looked up): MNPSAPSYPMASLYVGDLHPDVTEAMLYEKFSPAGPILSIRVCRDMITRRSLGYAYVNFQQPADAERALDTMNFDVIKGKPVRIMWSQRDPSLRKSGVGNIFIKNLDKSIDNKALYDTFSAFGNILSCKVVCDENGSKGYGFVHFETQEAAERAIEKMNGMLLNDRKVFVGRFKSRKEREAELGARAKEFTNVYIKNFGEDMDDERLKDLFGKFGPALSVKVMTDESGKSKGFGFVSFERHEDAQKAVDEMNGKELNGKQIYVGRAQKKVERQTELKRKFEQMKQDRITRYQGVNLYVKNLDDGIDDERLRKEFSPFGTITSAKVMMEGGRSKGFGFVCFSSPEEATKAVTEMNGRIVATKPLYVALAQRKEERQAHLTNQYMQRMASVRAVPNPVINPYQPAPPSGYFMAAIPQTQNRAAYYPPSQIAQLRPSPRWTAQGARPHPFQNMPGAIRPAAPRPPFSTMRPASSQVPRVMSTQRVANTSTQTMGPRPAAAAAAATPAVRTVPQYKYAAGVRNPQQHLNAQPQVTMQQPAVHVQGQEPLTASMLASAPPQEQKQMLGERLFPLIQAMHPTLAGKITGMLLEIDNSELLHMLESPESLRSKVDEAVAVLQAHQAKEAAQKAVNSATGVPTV
Rce1 inhib = yeast Ras-converting enzyme inhibition; yeast membranes, quenched prenylated peptide cleavage fluorescence; calls only; AID 2563; hit rate 0.27% among 290,000; Q03530;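 active = fall in fluorescence gain of 50% or more versus controls, with final raw signal at or below 3038400; inconclusive = same 50% fall but final raw signal above 3038400; inactive = fall in fluorescence gain under 50%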;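 note: plate controls were neutral control wells for no effect and wells lacking membranes for full effect; tested at 10 µM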
Target sequence (Q03530 whole entry, looked up): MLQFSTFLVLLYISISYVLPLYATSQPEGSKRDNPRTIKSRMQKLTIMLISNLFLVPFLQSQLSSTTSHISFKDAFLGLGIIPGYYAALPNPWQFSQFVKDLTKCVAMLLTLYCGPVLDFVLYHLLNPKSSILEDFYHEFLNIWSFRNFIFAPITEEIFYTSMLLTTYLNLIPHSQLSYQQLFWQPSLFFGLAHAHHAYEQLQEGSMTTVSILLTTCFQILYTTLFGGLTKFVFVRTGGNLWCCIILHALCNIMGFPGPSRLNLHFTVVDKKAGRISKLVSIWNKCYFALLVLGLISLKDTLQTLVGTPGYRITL
CSC inhib = blocks cancer stem cells; cancer stem cell-like cells viability, luminescence; inhibition, % at 7.5 µM; hit rate 1.1% among 300,000;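 active = mean at 75% or more and at least half the replicates too; inconclusive = mean and replicates disagree; tested in HMLE shEcad cells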;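 note: 0% = median of negative and 100% = median of positive control wells; the first replicate is given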
eIF4H inh = inhibitors of RNA binding by human eIF4H; Q15056; eIF4H fluorescence polarization binding assay; inhibition, % at 35 µM; hit rate 0.94% among 290,000; AID 2012;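 active = 50% or more with normal probe brightness, or confirmed in later tests; inconclusive = above 50% with abnormal brightness, or retests that disagree; inactive = below 50% or failed in later tests; about a fifth of its hits are not listed in these tables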;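 note: calls also rest on retests at 20 µM and on dose response follow-up; 0% = protein and probe with vehicle and 100% = probe without protein; strong numbers were not always called active; many hits fall short of the cut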
eIF4H inh retest = further read-out of eIF4H inh, marked with its call; inhibition, %; compound at 20 µM; confirmation average;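 mean of two retest wells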
PABP polyA inh retest = recorded beside PABP polyA inh, whose call it bears; inhibition, %; compound at 20 µM; confirmation repeats;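 mean of two retest wells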
MT1-MMP act inh RFP = recorded beside MT1-MMP act inh, whose call it bears; RFP signal change, %; measured here: RFP expression control read;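 0 = vehicle wells; hits needed this value within 50% of zero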
An asterisk follows results filed as active; i = inactive; ? = inconclusive; nt = not tested or not shown.

Preview (4 entries):
SMILES	MT1-MMP act inh	MT1-MMP act inh RFP	HIV Env fusion	Yeast UUG start	PABP polyA inh	Rce1 inhib	CSC inhib	eIF4H inh	others
Cc1cccc(C)c1NC(=O)CN(C)C(=O)CC1OC(=O)c2ccccc21 (stereo unspecified)	9	3	-2	nt	nt	i	-3	nt
CCNc1nc(N2CCOCC2)nc(N(c2ccccc2)c2ccccc2)n1	1	5	-24	nt	-6	i	10	0
CC(C)(C)C(=O)Nc1ccc(S(=O)(=O)Nc2ccccn2)cc1	4	6	3	nt	-12	i	-1	-1
CCS(=O)(=O)N1Cc2ccccc2CC1C(=O)Nc1cccc(C)c1 (stereo unspecified)	2	2	-14	nt	11	i	-6	3

The list itself, from the start:
SMILES	MT1-MMP act inh	MT1-MMP act inh RFP	HIV Env fusion	Yeast UUG start	PABP polyA inh	Rce1 inhib	CSC inhib	eIF4H inh	others
Cc1cccc(C)c1NC(=O)CN(C)C(=O)CC1OC(=O)c2ccccc21 (stereo unspecified)	9	3	-2	nt	nt	i	-3	nt
CCNc1nc(N2CCOCC2)nc(N(c2ccccc2)c2ccccc2)n1	1	5	-24	nt	-6	i	10	0
CC(C)(C)C(=O)Nc1ccc(S(=O)(=O)Nc2ccccn2)cc1	4	6	3	nt	-12	i	-1	-1
CCS(=O)(=O)N1Cc2ccccc2CC1C(=O)Nc1cccc(C)c1 (stereo unspecified)	2	2	-14	nt	11	i	-6	3
CC(=O)Nc1c(C(=O)N2CCCCCC2)cnn1-c1ccccc1Cl	-3	0	4	-7	6	i	-2	2
CC(C)(C)NC(=O)NC(=O)COC(=O)C1=COCCO1	5	6	-23	-7	6	nt	-12	-2
O=C(Nc1ccccc1)c1ccccc1OCC(O)CN1C(=O)c2ccccc2S1(=O)=O (stereo unspecified)	-1	-1	-83	2	-3	i	0	-4
Cc1cccc(OCC(=O)NCc2ccccc2)c1	1	3	-1	-10	2	i	-4	12
O=C(NCCN1CCOCC1)c1cccc(NS(=O)(=O)c2ccc(Br)cc2)c1	0	-1	-7	nt	nt	i	-2	nt
Cn1nccc1NC(=O)Nc1cccc(Br)c1	2	-2	nt	-13	1	i	-38	-6
CS(=O)(=O)Nc1cccc(S(=O)(=O)N2CCN(C(=O)c3ccccc3)CC2)c1	-3	2	-3	-19	8	i	nt	3
CC(=O)Nc1ccc(S(=O)(=O)NCc2nnnn2-c2ccc(Cl)cc2)cc1	-2	-2	nt	-28	nt	i	-2	nt
CS(=O)(=O)Nc1ccccc1C(=O)Nc1ccccc1Cl	8	0	nt	-7	-4	i	2	-14
FC(F)Oc1ccc(N=C2SCC3CCCCN23)cc1 (stereo unspecified)	2	-7	-37	-10	-2	nt	1	-5
Cc1cc([N+](=O)[O-])ccc1NC(=O)CCC(=O)N1CCCC1	-1	3	-13	-8	-7	i	-12	-10
COc1ccc(OC)c(NC(=O)CSc2nnc(CNc3ccc(F)cc3)o2)c1	2	-2	1	-10	3	i	4	6
O=C(NCCC(=O)N1CCC2(CC1)NCCc1[nH]cnc12)c1ccc(Br)cc1	1	4	1	-18	3	i	-4	-7
CC1CCC(CN2C(Nc3ccccc3)=NC[C@@H]2Cc2ccccc2)CC1 (stereo partly specified)	-1	-2	-9	6	nt	nt	10	nt
CCOC(=O)CNC(=O)CSc1nnc(Cn2c(=O)sc3ccccc32)n1C	1	4	-7	-16	81	i	-10	3	eIF4H inh retest=-6;PABP polyA inh retest=-4
O=C(NCc1ccc(Cl)cc1)c1cccc(NC2=NC3CS(=O)(=O)CC3S2)c1 (stereo unspecified)	-4	3	15	0	14	i	nt	-4
CCc1ccc(S(=O)(=O)N/N=C\c2ccc3c(c2)OCO3)cc1	-10	-3	-8	-15	2	i	16	-8
N#Cc1nc(COc2ccc(F)cc2)oc1N1CCN(Cc2ccccc2)CC1	3	1	nt	-12	-4	i	-3	-8
O=c1c2cnn(-c3ccccc3)c2ncn1Cc1ccccc1	2	-7	-46	-7	-10	nt	11	-4
Cc1ccc(Cn2ccc(NC(=O)c3cc(-c4cccc(Cl)c4)on3)n2)cc1	11	-1	nt	-10	-13	i	2	2
CCCCCCOc1ccc(N2C(=O)CC(N3CCC(C(=O)OCC)CC3)C2=O)cc1 (stereo unspecified)	7	-2	nt	-15	-18	i	16	4
CC1(C(=O)NCc2ccccc2)Cc2c(-c3cccc(C(N)=O)c3)ccnc2O1 (stereo unspecified)	11	1	-5	23	nt	nt	nt	nt
CCc1nnc(NC(=O)CSc2nnc(Cc3ccccc3)n2Cc2ccccc2)s1	2	1	-86	nt	5	i	8	2
COc1cc2nc(NC(=O)c3ccccc3)sc(=O)c2cc1OC	2	4	59*	-21	10	i	nt	-7
COc1ccc(-n2c(SCC(=O)Nc3ccc4c(c3)OCO4)nc3ccccc3c2=O)cc1	5	-6	-5	nt	-5	i	nt	-4
CC(=O)c1cccc(NC(=O)CCc2nnc3ccc(NCc4ccco4)nn23)c1	0	1	-8	-17	nt	i	-4	nt

Grouped by structure, the entries above with a tert-butyl group (2)
SMILES	MT1-MMP act inh	MT1-MMP act inh RFP	HIV Env fusion	Yeast UUG start	PABP polyA inh	Rce1 inhib	CSC inhib	eIF4H inh	others
CC(C)(C)C(=O)Nc1ccc(S(=O)(=O)Nc2ccccn2)cc1	4	6	3	nt	-12	i	-1	-1
CC(C)(C)NC(=O)NC(=O)COC(=O)C1=COCCO1	5	6	-23	-7	6	nt	-12	-2

Carrying on:
SMILES	MT1-MMP act inh	MT1-MMP act inh RFP	HIV Env fusion	Yeast UUG start	PABP polyA inh	Rce1 inhib	CSC inhib	eIF4H inh	others
FC(F)(F)c1ccc(-c2nnc(-c3cccnc3)o2)cc1	2	-1	-20	-12	6	i	-1	-2
O=C(NCc1cccnc1)c1cccn1-c1ncc(C(F)(F)F)cc1Cl	-2	1	2	nt	1	i	-7	5
O=C(CN1C(=O)C2C3C=CC(C3)C2C1=O)N1CC(=O)N(CCc2ccccc2)C(=O)C1 (stereo unspecified)	1	4	nt	-10	0	i	9	-10
O=C(O)C1C2C=CC(C2)C1C(=O)NCCc1ccncc1 (stereo unspecified)	0	2	-7	-3	12	i	5	6
COCOc1cccc(CN2CCC(C)(Oc3cccc(C#N)c3)C2)c1 (stereo unspecified)	-1	-1	-14	-1	nt	nt	nt	nt
CCCCC(Sc1nc(N)c(NC(=O)c2ccc(OCC)cc2)c(=O)[nH]1)C(=O)O (stereo unspecified)	2	2	-9	-9	-15	i	nt	-4
O=C(O)CCN1C(=O)C(=C2CCCCCC2)SC1=S	-3	-2	nt	-10	29	i	?	-7
Cc1cc(C)c2ccc(Cl)cc2n1	11	14	-16	-18	2	i	-12	-4
COc1cc(NC(=O)c2ccco2)c(OC)cc1NC(=O)CCC(=O)Nc1cc(C)ccc1C	2	2	-16	-9	-6	nt	nt	-10
Cc1ccc(-c2nnc(N3CCOCC3)c3ccccc23)cc1S(=O)(=O)NCC1CCCO1 (stereo unspecified)	1	-3	nt	10	-1	i	4	-1
COc1ccc(-c2nc3ccccc3c(=O)n2CCCN2CCOCC2)cc1	10	4	nt	-6	2	i	1	-3
CSc1ccccc1NC(=O)c1cc2c(=O)n3ccccc3nc2s1	2	2	-5	16	-3	i	-31	-4
Cc1ccc(NC(=O)C(C)OC(=O)C2CC3CCCC(C2)C3=O)cc1S(=O)(=O)N1CCOCC1 (stereo unspecified)	-4	-1	-4	-7	nt	nt	nt	nt
COC(=O)CCC(=O)c1ccn(S(=O)(=O)c2ccccc2)c1	-3	2	-36	-5	4	i	nt	-3
O=C(COc1ccc(F)cc1)N1CCC(c2ccccc2)C1 (stereo unspecified)	nt	nt	-73	3	1	i	-5	-8
COc1ccc(CNc2cccc3[nH]c(C(F)(F)F)nc23)cc1	3	3	2	2	0	i	14	-8
CC1(C)CC(NC(=O)COc2ccc3ccccc3c2)CC(C)(C)N1	8	7	nt	-13	-2	i	-3	4
C=Cn1nc(C)c2ccccc2c1=O	-1	2	nt	-12	9	i	-9	-6
CC(C)Nc1nc(-c2cccnc2)nc(-c2ccc(Cl)cc2)c1C#N	-4	-5	-3	-16	-4	i	42	-7
O=C(CSc1ncn[nH]1)c1ccc2c(c1)OCCO2	-2	-1	-15	-18	2	i	-4	-9
Cc1ccc(OCC(=O)n2cnnc2N)c(C)c1	nt	nt	nt	nt	-16	i	-4	-6
COCc1nnc(NC(=O)C23CC4CC(CC(C4)C2)C3)s1	-3	-2	2	-15	nt	nt	nt	nt
COc1cc2nc(COc3ccccc3[N+](=O)[O-])oc(=O)c2cc1OC	0	4	-22	nt	34	i	-3	-4
Cc1cc(Cl)ccc1OCc1nnc(-c2ccccc2C)o1	3	2	-108	-26	nt	nt	nt	nt
CCSc1nnc(NC(=O)COc2ccccc2[N+](=O)[O-])s1	-4	1	-34	-4	9	i	4	6
CCCNC(=O)Cn1c(=O)/c(=C\c2ccc(-c3ccc([N+](=O)[O-])cc3)o2)s/c1=C\C(=O)C(C)(C)C	-165	12	nt	-10	-3	i	1	?
CCCn1nc(NC(=O)COC)c2cc3cccc(C)c3nc21	-1	0	-4	-5	-2	i	-17	-3
N#Cc1ccccc1Sc1ccccc1C(=O)Nc1ccc2ccccc2c1	-5	-4	1	nt	26	nt	17	-10
CN1CCN(S(=O)(=O)c2ccc(NC(=O)c3ccc(F)cc3Cl)cc2)CC1	2	-2	-6	-11	-5	i	-8	-7
COc1cc(Cl)nn(-c2ccccc2)c1=O	3	3	-41	-17	23	i	4	3

Molecules shown so far that have a COOH group (3):
SMILES	MT1-MMP act inh	MT1-MMP act inh RFP	HIV Env fusion	Yeast UUG start	PABP polyA inh	Rce1 inhib	CSC inhib	eIF4H inh	others
O=C(O)C1C2C=CC(C2)C1C(=O)NCCc1ccncc1 (stereo unspecified)	0	2	-7	-3	12	i	5	6
CCCCC(Sc1nc(N)c(NC(=O)c2ccc(OCC)cc2)c(=O)[nH]1)C(=O)O (stereo unspecified)	2	2	-9	-9	-15	i	nt	-4
O=C(O)CCN1C(=O)C(=C2CCCCCC2)SC1=S	-3	-2	nt	-10	29	i	?	-7

New compounds follow.
SMILES	MT1-MMP act inh	MT1-MMP act inh RFP	HIV Env fusion	Yeast UUG start	PABP polyA inh	Rce1 inhib	CSC inhib	eIF4H inh	others
CC(C)(C)Nc1nc(Oc2ccc(=O)[nH]n2)nc(N2CCOCC2)n1	-1	4	2	nt	4	i	nt	2
CC(=O)N1CCc2cc(S(=O)(=O)NCCCN3CCCCC3)ccc21	-5	2	-7	-6	4	i	-16	-5
CC(O)c1cccc(NC2=CC(=O)CC(C)(C)C2)c1 (stereo unspecified)	5	-1	nt	-12	-6	i	-1	-3
Cc1ccc(OCCCCNC(C)(C)C)c([N+](=O)[O-])c1	3	7	nt	nt	-8	i	21	-8
CN1C(=O)C(CC(=O)Nc2ccc(F)cc2)N(Cc2cccs2)C1=S (stereo unspecified)	1	0	12	-12	8	i	9	-8
COc1ccccc1C(c1nnnn1Cc1ccccc1)N1CCN(c2nc3ccccc3s2)CC1 (stereo unspecified)	-19	-21	nt	-10	12	i	-4	-4
CN(c1ccccc1)S(=O)(=O)c1cccc(NC(=O)C2=NN(c3ccccc3)C(=O)CC2)c1	-7	-25	37	-1	nt	nt	22	nt
CC(=O)c1cccc(NC(=O)C(C)Sc2nnc3ccccn23)c1 (stereo unspecified)	-1	0	-13	-5	nt	nt	nt	nt

These rows are one share of the data (hit frequency here may not be typical).
